SARS PLP yeast = inhibitors of SARS-CoV papain-like protease in yeast; S. cerevisiae expressing SARS-CoV PLpro, growth rescue; control for the full effect not named in the record; Potency, µM (titrated, usually from 32.9 µM), for inactives: at the top dose activity, positive = growth rescue; 330,000 compounds, 0.19% hits; AID 485353; active means well fitted rising curve with a large enough effect; inconclusive means small, poorly fitted or top-dose-only effect; inactive means no such curve, though single readings can be large or run the other way; also: 0% is about no effect; nearly all actives have a fitted effect of over 55% in size; growth read by luminescence after 48 h
Cruzain Triton = inhibitors of Trypanosoma cruzi cruzain with detergent | purified cruzain, Z-FR-AMC fluorescence, 0.01% Triton | Potency, µM, inactives show max response, negative = inhibition, hits mostly inhibitors | 200,000 compounds, 0.43% hits;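 also: plate controls were neutral wells for no effect and buffer without enzyme for full effect; nearly all actives have a fitted effect of over 40% in size; top concentration of the series not given in the record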
Target sequence (P25779 123-467 limits assumed): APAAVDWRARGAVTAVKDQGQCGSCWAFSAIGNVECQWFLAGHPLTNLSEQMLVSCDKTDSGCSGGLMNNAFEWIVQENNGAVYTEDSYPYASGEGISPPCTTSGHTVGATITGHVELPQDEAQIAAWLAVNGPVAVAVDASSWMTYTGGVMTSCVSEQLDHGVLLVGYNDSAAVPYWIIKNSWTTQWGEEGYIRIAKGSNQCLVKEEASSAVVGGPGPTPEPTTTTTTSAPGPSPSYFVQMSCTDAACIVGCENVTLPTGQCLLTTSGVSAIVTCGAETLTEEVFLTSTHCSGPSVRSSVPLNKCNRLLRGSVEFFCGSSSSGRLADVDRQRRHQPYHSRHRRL
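Purified cruzain (1.5 nM final) was preincubated with compounds for 15 min at room temperature in 100 mM sodium acetate pH 5.5, 5 mM DTT, 0.01% Triton X-100. Reaction started with 2 uM Z-FR-AMC; AMC fluorescence change over 60 s gave activity.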
Lassa entry inh = inhibitors of Lassa virus binding or cell entry; Lassa virus pseudotype entry inhibition, cell reporter; control for the full effect not named in the record; Potency, µM (highest dose often 37.9 µM), without a hit: at the highest dose activity change, negative = inhibition, hits mostly inhibitors; 300,000 compounds, 1.2% hits; active means well fitted inhibition curve with a large enough effect; inconclusive means small, poorly fitted or top-dose-only effect, or effect the other way; inactive means flat fitted curve, though single readings scatter; tested in HEK293 cells; also: % is scaled to controls: 0 for no effect and ±100 for the full control effect; nearly all actives have a fitted effect of over 50% in size; luciferase read-out
Cruzain inh noDet = cruzain (T. cruzi) inhibition without detergent. purified cruzain, Z-FR-AMC fluorescence, no detergent. 200,000 compounds, 2.3% hits. P25779. Potency, µM, for inactives: max response, negative = inhibition, most hits filed as inhibitors;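 also: plate controls were enzyme without inhibitor for no effect and buffer without enzyme for full effect; nearly all actives have a fitted effect of over 40% in size; top concentration of the series not given in the record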
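Detergent-free condition (0.00005% Triton X-100) in acetate buffer pH 5.5 with DTT. 1.5 nM enzyme and compound were pre-mixed 15 min, then 2 uM Z-FR-AMC substrate added; reaction progress from fluorescence change between first and third reads (60 s).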
2A StopGo = FMDV 2A StopGo reporter, luciferase signal. human cells with a luciferase reporter of 2A StopGo recoding; control for the full effect not named in the record. Potency, µM (doses to about 57.9 µM), inactives show top-dose signal change, negative = less light. 410,000 compounds, 1.2% hits. AID 1159524; active = well fitted falling curve with a large enough effect; inconclusive = small, poorly fitted or top-dose-only effect; inactive = no such curve, though single readings can be large or run the other way; tested in HEK293T cells; also: % is scaled to controls: 0 for no effect and ±100 for the full control effect; nearly all actives have a fitted effect of over 45% in size; luciferase light after 4 h
NS1 inh = influenza NS1 inhibition; S. cerevisiae slowed by influenza A NS1, growth recovery by OD600; Potency, µM (series often up to 46.1 µM), without a hit: top-dose activity, positive = more growth; 270,000 compounds, 0.4% hits; AID 2326; active means well fitted rising curve with a large enough effect; inconclusive means small, poorly fitted or top-dose-only effect; inactive means no such curve, though single readings can be large or run the other way; also: nearly all actives have a fitted effect of over 50% in size
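Read-out: OD600 growth recovery of NS1-expressing budding yeast. Cells grown overnight at 30C in -URA glucose medium, washed, resuspended and diluted 1:100 in 2% galactose assay medium, pH 6.0. Same strain lacking NS1 served as positive control.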
RE007 growth inh = less growth of the S. pombe RE007 Vpr strain; 360,000 compounds, 0.21% hits; Potency, µM (series often up to 92.2 µM), inactives show at the top dose activity change, negative = less growth; S. pombe RE007 Vpr strain, BacTiter-Glo ATP luminescence, 24 h; control for the full effect not named in the record; active = well fitted falling curve with a large enough effect; inconclusive = small, poorly fitted or top-dose-only effect; inactive = no such curve, though single readings can be large or run the other way;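 also: % is scaled to controls: 0 for no effect and ±100 for the full control effect; nearly all actives have a fitted effect of over 50% in size; the assay follows cell death caused by Vpr and the record does not say whether a fall means rescue or toxicity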
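Fission yeast strain RE007, carrying one chromosomally integrated HIV-1 vpr copy, was seeded at OD 0.01 in PMG+AL medium with 23 nL pinned compound. After 24 h at 30 °C and 99% humidity, viability was read by BacTiter-Glo luminescence.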
Marburg entry inh = blocks Marburg virus binding to or entry into cells; Marburg virus pseudotyped entry inhibition, cell reporter; control for the full effect not named in the record; about a third of the inactives were read at about 46 µM; Potency, µM (series often up to 37.8 µM), for inactives: at the top dose activity change, negative = inhibition, usual class: inhibitors; 300,000 compounds, 1.8% hits; AID 540276; active = well fitted inhibition curve with a large enough effect; inconclusive = small, poorly fitted or top-dose-only effect, or effect the other way; inactive = flat fitted curve, though single readings scatter; tested in HEK293 cells; about a fifth of its hits are not listed in these tables; also: % is scaled to controls: 0 for no effect and ±100 for the full control effect; luciferase read-out
The depositor's hits bear a star; ? = inconclusive; . = no result given; & = joins results of further samples; [ ] = dose if it differs, or a comment. Unless noted, calls follow the shape of the dose curve; as a rule, active = well fitted curve in the direction sought with a large enough effect; inconclusive = small, poorly fitted or top-dose-only effect, or another doubt; inactive = no such curve, though single readings can be large; an effect the other way counts as inactive or inconclusive. Potency is read from the fitted curve at half-maximal effect. Compounds as they come. Share with any hit: about 4.7%.

SMILES	NS1 inh	Marburg entry inh	Lassa entry inh	SARS PLP yeast	Cruzain inh noDet	RE007 growth inh	2A StopGo	Cruzain Triton
C=CCn1c(SCCOc2ccc(OC)cc2)nnc1C(CO)NC(=O)c1ccc(OC)cc1 (stereo unspecified)	-6%	-8%	1%	4%	?	17%	-25%	0.8%
CCOc1ccc(CCNC(=O)Cn2c(C)c3cnn(-c4ccccc4)c(=O)c3c2C)cc1	.	4%[46.1 µM]	-8%[46.1 µM]	.	9%	.	-18%	-5.0%
CN(C)c1ccc(C2(c3ccc(N(C)C)cc3)OC(=O)c3cc(N)ccc32)cc1	8%	?	-1%[46.1 µM]	0%	.	-12%	1%	.
Cc1c(/C=N/Nc2ccc(C(=O)O)cc2)c2ccccc2n1C	-2%	.	.	-3%	.	-5%	-13%	.
CCCCn1c(O)c(C=NCCCN(CC)CC)c(=O)[nH]c1=O	0%	9%	21%	1%	-4%	-14%	-11%	0.7%
O=C1CC(SCCc2nc3ccccc3[nH]2)C(=O)N1c1ccc(Cl)cc1 (stereo unspecified)	11%	2%	-9%	-16%	-21%	?	-6%	0.7%
CN(Cc1c(C(=O)N/N=C/c2cccc(O)c2)nnn1-c1nonc1N)c1ccccc1	-4%	.	.	2%	.	1%	-3%	.
CCN1C(=O)CS/C1=N\S(=O)(=O)c1ccc(Cl)cc1	.	0%[46.1 µM]	-5%	-2%	.	-2%	-15%	.
O=C(CCS(=O)(=O)c1cc(Br)cc2c1N(C(=O)C1CC1)CC2)NCc1ccco1	8%	11%	-4%	2%	-4%	-1%	12%	12%
CCN(CC)S(=O)(=O)c1ccc(OC)c(NC(=O)C2CC(=O)N(c3ccc(C)cc3)C2)c1 (stereo unspecified)	-3%	3%[46.1 µM]	1%	0%	.	1%	2%	.
CC(C)N(C(=O)c1cc2c(Cl)nc3ccccc3c2s1)C1CCCCC1	.	6%[46.1 µM]	10%[46.1 µM]	.	2%	.	-4%	-1.3%
CCOc1ncccc1C(=O)OCC(=O)c1cccc(Br)c1	.	-16%[46.1 µM]	0%	-1%	.	1%	-8%	.
N=Cc1c(O)n(-c2cccc(Cl)c2)c(=O)[nH]c1=O	7%	-7%	3%	-3%	6%	3%	-23%	2.4%
COc1ccc(S(=O)(=O)Nc2ccccc2Cl)cc1NC(C)=O	.	-4%[46.1 µM]	0%[46.1 µM]	0%	.	20%	32%[activator]	.
CCCCOP(=O)(OCCCC)C(Nc1ccccc1)c1ccc2c(c1)OCO2 (stereo unspecified)	-7%	?	8%	-46%	6%	4%	0%	-12%
Cc1ccc(S(=O)(=O)N2CCC(C)CC2)cc1	17%	.	.	1%	.	-6%	-13%	.
Cc1ccc(NC(=O)CSc2nnc(CN3CCOCC3)n2C)cc1C	5%	1%	-9%	0%	-5%	18%	-3%	-0.3%
CN(NC1OC(=O)c2ccccc21)c1ccccc1[N+](=O)[O-] (stereo unspecified)	1%	12%[46.1 µM]	15%	1%	.	12%	-1%	.
CC1CCCCN1CCNC(=O)c1cnn2ccccc12 (stereo unspecified)	2%	.	.	4%	0%	-13%	-3%	3.0%
COc1ccc(CNC(=O)C2CCN(C(=O)N(C)C)CC2)c(OC)c1	-7%	-3%	?	4%	-11%	12%	19%	1.8%
CCOC(=O)C1CCC(CN(Cc2cccc(Br)c2)S(=O)(=O)c2ccc(Cl)cc2)CC1 (stereo unspecified)	.	.	-18%[46.1 µM]	.	-1%	.	-1%	0.9%
Cc1ccc(-n2nc3c(c2NC(=O)/C=C\c2ccc4c(c2)OCO4)CSC3)c(C)c1	8.9µM*	-6%	-6%	10%	25µM*	8%	-9%	-6.2%
O=[N+]([O-])c1ccccc1NCCOc1ccccc1	-5%	-15%	?	-5%	-11%	?	27%	-5.0%
COC(=O)CC1C(=O)NCCN1C(=O)Nc1ccc(Cl)c(Cl)c1 (stereo unspecified)	7%	.	.	0%	.	-3%	-4%	.
O=C(NC(=S)Nc1ccccc1Cl)c1cnn2c(C(F)(F)F)cc(C(F)(F)F)nc12	8%	.	.	0%	.	-6%	-14%	.
Cc1cccc(CSc2nc3c(c(=O)[nH]2)CCCC3)c1	2%	13%	1%	6%	-11%	2%	-17%	0.3%
CN(C)C(=O)Oc1ccc(C(=O)c2ccccc2)cc1	-13%	1%	22%	-7%	17%	4%	.	-2.4%
CCN(CC)CCNC(=O)c1ccc2c(c1)N(Cc1ccccc1)C(=O)c1ccccc1S2=O (stereo unspecified)	.	?	6%[46.1 µM]	.	-11%	.	-20%	3.8%
COc1ccc(Br)cc1/C(C)=N/NC1=NCCN1	-9%	?	?	-7%	7%	-10%	?	0.4%
O=C(CSc1nnc(-c2cccs2)o1)N1CCc2ccccc21	-48%	0%	-3%	?	-1%	?	2%	-2.4%
Cn1c(=O)c2c(ncn2CC(=O)N/N=C/C=C/c2ccccc2[N+](=O)[O-])n(C)c1=O	-3%	2%[46.1 µM]	19%	1%	.	3%	-5%	.
CC1=C(C(=O)Nc2ccc(Cl)cc2)C(c2cccs2)n2nnnc2N1 (stereo unspecified)	-7%	2%	23%	-7%	-1%	8%	-24%	1.7%
CC1CCC(NC(=O)CC(C)(C)Cc2nc3ccccc3c(=O)[nH]2)CC1 (stereo unspecified)	?	?	-26%	2%	10%	5%	.	1.2%
CCOc1ccc(CNCCN2CCCC2)cc1	-16%	?	?	1%	.	-11%	-24%	.
O=C1CSC(c2cccnc2)N1c1cccc(Cl)c1 (stereo unspecified)	.	-13%[46.1 µM]	-27%	5%	.	11%	-20%	.
O=C(Cn1cnc(S(=O)(=O)N2CCCC2)c1)Nc1cccc(F)c1	-8%	.	2%[46.1 µM]	0%	0%	-15%	-15%&-14%	-0.3%
O=C(CCC(=O)c1ccc(F)cc1)Nc1cccc(C(F)(F)F)c1	4%	-21%	3%	-30%	-12%	-2%	-20%	-8.0%
COC(=O)C(CCCN1C(=O)c2ccccc2C1=O)(NC(C)=O)c1nnn(C)n1 (stereo unspecified)	2%	4%[46.1 µM]	4%	-1%	.	7%	1%	.
O=C(C1CCN(CC2CCCCC2)CC1)N1CCCC1	-2%	19%[46.1 µM]	-1%	8%	6%	-11%	5%	0.2%
COc1cc(C2Nc3ccccc3NC3=C2C(=O)CC(c2ccc(OC)c(OC)c2)C3)ccc1O (stereo unspecified)	-8%	2%[46.1 µM]	17%	-1%	.	-6%	9%	.
Cc1nn(C(C)C(=O)NC2CCC(C)CC2)c(=O)c2c1sc1ccccc12 (stereo unspecified)	.	?	-27%[46.1 µM]	.	1%	.	15%	-12%
NS(=O)(=O)c1ccc(CCNC(=S)NC(=O)c2ccccc2Br)cc1	.	-2%[46.1 µM]	?	1%	.	-8%	?	.
Cc1ccc(-n2nc3c(c2NC(=O)c2c(-c4ccccc4Cl)noc2C)CSC3)cc1	-18%	?	?	1%	?	-11%	.	1.0%
CCN(CC)CCSc1nc2ccccc2c(=O)n1-c1ccc(Cl)cc1	.	.	-2%[46.1 µM]	.	0%	.	-17%	-1.8%
Cc1onc(-c2ccccc2)c1C(=O)c1c[nH]c(C(=O)NCc2ccncc2)c1	.	-22%[46.1 µM]	18%	1%	.	-6%	?	.
O=C(CSc1nnnn1C1CCCC1)N1CCCCC1	5%	?	8%[46.1 µM]	18%	.	-5%	16%	.
NC1=NC2(CCC(c3ccccc3)CC2)n2c(nc3ccccc32)N1 (stereo unspecified)	-8%	?	?	-5%	-4%	20%	-28%	-3.1%
O=C(c1ccc(F)cc1)C1CCN(C(=S)NCC2CCCO2)CC1 (stereo unspecified)	-1%	-2%[46.1 µM]	15%[46.1 µM]	-1%	.	-9%	12%	.
FC(F)(F)c1nnc2sc(-c3ccncc3)nn12	-8%	-8%	-5%	4%	2%	-4%	-1%	3.1%
CC1CCCC(NC(=O)COC(=O)[C@@H](NC(=O)c2ccco2)C(C)C)C1C (stereo partly specified)	.	?	1%[46.1 µM]	2%	.	-9%	1%	.
COc1ccc(N(C(C)C(=O)Nc2ccc(S(=O)(=O)N3CCOCC3)cc2)S(C)(=O)=O)cc1 (stereo unspecified)	-4%	-2%[46.1 µM]	1%	-1%	.	-1%	20%	.
CC(=O)Nc1ccc(S(=O)(=O)Nc2cccc(C(=O)NC(C)(C)C)c2)cc1	-8%	3%	-2%	-1%	6%	9%	-19%	3.4%
CCN(CC)S(=O)(=O)c1ccc(N2CCN(C)CC2)c(NC(=O)COc2ccc(F)cc2Cl)c1	.	?	-23%	7%	.	0%	-20%	.
CC1=C(C(=O)NC2CCCc3c2cnn3-c2cccc(C)c2C)OCCO1 (stereo unspecified)	4%	?	?	0%	.	-2%	?	.
COc1ccccc1N1CCN(C(=O)c2ccccc2NC(=O)C2CCCCC2C(=O)O)CC1 (stereo unspecified)	24%	?	-4%	9%	-3%	-10%	-24%	-4.8%
O=C(NCc1ccccc1)c1cc2ccccc2oc1=O	-6%	.	.	-7%	.	4%	88%[activator]	.
O=C(N1CCCCCC1)N1CCN(S(=O)(=O)N2CCCCC2)CC1	-9%	10%	-1%	5%	4%	0%	-12%	7.2%
COC(=O)c1cccc(Cn2nnc3ccccc3c2=O)c1	-17%	3%[46.1 µM]	1%	-3%	-6%	-12%	-14%	3.9%
CCCCOc1ccc(C(=S)N2CCC(C(N)=O)CC2)cc1	.	?	8%[46.1 µM]	-5%	.	2%	23%	.
O=C(Nc1ccc(Br)cc1)c1cccc(N2C(=O)C3CCCCC3C2=O)c1 (stereo unspecified)	-5%	-4%	4%	4%	.	0%	?	.
Cc1c(C)c2cc(Cl)c(O)c(CN(C)C)c2oc1=O	-17%	-4%	12%	4%	?	-9%	-5%	32µM*

Screens deposited in PubChem by National Center for Advancing Translational Sciences (NCATS).
